SARS PLpro yeast – inhibitors of SARS-CoV papain-like protease in yeast; S. cerevisiae expressing SARS-CoV PLpro, growth rescue; control for the full effect not named in the record; Potency, µM (highest dose often 32.9 µM), for inactives: at the top dose activity, positive = growth rescue; 330,000 tested, 0.19% active; AID 485353; further: 0% is about no effect; nearly all actives have a fitted effect of over 55% in size; growth read by luminescence after 48 h
NS1 inh – influenza NS1 inhibition. S. cerevisiae slowed by influenza A NS1, growth recovery by OD600. Potency, µM (titrated, usually from 46.1 µM), for the others: at the top dose activity, positive = more growth. 270,000 tested, 0.4% active. AID 2326; further: actives are rising curves; nearly all actives have a fitted effect of over 50% in size
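Recovery from NS1-induced slow growth read by OD600 in budding yeast switched to galactose assay medium (pH 6.0, -URA) at 1:100 dilution. Compound 23 nl per well; the matching strain lacking NS1 serves as control.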
2A StopGo – lowers the luciferase signal of an FMDV 2A StopGo reporter; Potency, µM (series often up to 57.9 µM), for the others: at the highest dose signal change, negative = less light; 410,000 tested, 1.2% active; AID 1159524; human cells with a luciferase reporter of 2A StopGo recoding; control for the full effect not named in the record; active = well fitted falling curve with a large enough effect; inconclusive = small, poorly fitted or top-dose-only effect; inactive = no such curve, though single readings can be large or run the other way; tested in HEK293T cells; further: on the % scale 0 is the no-effect control and ±100 the full control effect; nearly all actives have a fitted effect of over 45% in size; luciferase light after 4 h
Cruzain inh noDet – inhibitors of Trypanosoma cruzi cruzain without detergent; purified cruzain, Z-FR-AMC fluorescence, no detergent; P25779; 200,000 tested, 2.3% active; Potency, µM, for the others: max response, negative = inhibition, most hits filed as inhibitors; active means well fitted curve in the direction sought with a large enough effect; inconclusive means small, poorly fitted or top-dose-only effect, or another doubt; inactive means no such curve, though single readings can be large; an effect the other way counts as inactive or inconclusive;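 further: plate controls were enzyme without inhibitor for no effect and buffer without enzyme for full effect; nearly all actives have a fitted effect of over 40% in size; top concentration of the series not given in the record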
Target sequence (P25779 123-467 limits assumed): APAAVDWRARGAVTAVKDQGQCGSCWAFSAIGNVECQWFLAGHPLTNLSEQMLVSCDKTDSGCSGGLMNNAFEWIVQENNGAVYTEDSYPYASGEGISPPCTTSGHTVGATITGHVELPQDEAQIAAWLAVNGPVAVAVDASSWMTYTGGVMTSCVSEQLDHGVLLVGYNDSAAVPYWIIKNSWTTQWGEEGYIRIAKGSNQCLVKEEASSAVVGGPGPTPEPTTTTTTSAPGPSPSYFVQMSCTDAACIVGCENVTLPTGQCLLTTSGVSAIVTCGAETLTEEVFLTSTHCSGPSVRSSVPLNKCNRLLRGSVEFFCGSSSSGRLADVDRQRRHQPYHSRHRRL
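Purified cruzain at 1.5 nM, pre-incubated 15 min with compound at room temperature in 100 mM sodium acetate pH 5.5, 5 mM DTT, 0.00005% Triton X-100. Reaction started with 2 uM Z-FR-AMC; AMC fluorescence increase over 60 s gives rate.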
RE007 growth inh – less growth of the S. pombe RE007 Vpr strain. 360,000 tested, 0.21% active. Potency, µM (doses to about 92.2 µM), without a hit: at the top dose activity change, negative = less growth. S. pombe RE007 Vpr strain, BacTiter-Glo ATP luminescence, 24 h; control for the full effect not named in the record; active = well fitted falling curve with a large enough effect; inconclusive = small, poorly fitted or top-dose-only effect; inactive = no such curve, though single readings can be large or run the other way;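 further: on the % scale 0 is the no-effect control and ±100 the full control effect; nearly all actives have a fitted effect of over 50% in size; the assay follows cell death caused by Vpr and the record does not say whether a fall means rescue or toxicity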
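Fission yeast strain RE007, carrying one chromosomally integrated HIV-1 vpr copy, was seeded at OD 0.01 in PMG+AL medium with 23 nL pinned compound. After 24 h at 30 °C and 99% humidity, viability was read by BacTiter-Glo luminescence.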
Cruzain inh Det – cruzain (T. cruzi) inhibition with detergent; P25779; purified cruzain, Z-FR-AMC fluorescence, 0.01% Triton; Potency, µM, without a hit: max response, negative = inhibition, actives largely listed as inhibitors; 200,000 tested, 0.43% active; AID 1478; active means well fitted curve in the direction sought with a large enough effect; inconclusive means small, poorly fitted or top-dose-only effect, or another doubt; inactive means no such curve, though single readings can be large; an effect the other way counts as inactive or inconclusive;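 further: plate controls were neutral wells for no effect and buffer without enzyme for full effect; nearly all actives have a fitted effect of over 40% in size; top concentration of the series not given in the record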
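Sodium acetate buffer (100 mM, pH 5.5) containing 5 mM DTT and 0.01% Triton X-100 hosted 1.5 nM cruzain and test compound for 15 min at room temperature. Cleavage of 2 uM Z-FR-AMC was then tracked by fluorescence.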
Lassa entry inh – inhibitors of Lassa virus binding or cell entry | Lassa virus pseudotype entry inhibition, cell reporter; control for the full effect not named in the record | Potency, µM (top dose mostly 37.9 µM), inactives show top-dose activity change, negative = inhibition, most hits filed as inhibitors | 300,000 tested, 1.2% active; active means well fitted inhibition curve with a large enough effect; inconclusive means small, poorly fitted or top-dose-only effect, or effect the other way; inactive means flat fitted curve, though single readings scatter; tested in HEK293 cells; further: on the % scale 0 is the no-effect control and ±100 the full control effect; nearly all actives have a fitted effect of over 50% in size; luciferase read-out
MARV entry inh – inhibitors of Marburg virus binding or cell entry; Marburg virus pseudotyped entry inhibition, cell reporter; control for the full effect not named in the record; about a third of the inactives were read at about 46 µM; Potency, µM (series often up to 37.8 µM), for inactives: at the top dose activity change, negative = inhibition, most hits filed as inhibitors; 300,000 tested, 1.8% active; AID 540276; active = well fitted inhibition curve with a large enough effect; inconclusive = small, poorly fitted or top-dose-only effect, or effect the other way; inactive = flat fitted curve, though single readings scatter; tested in HEK293 cells; about a fifth of its hits are not listed in these tables; further: on the % scale 0 is the no-effect control and ±100 the full control effect; luciferase read-out
Numbers without * were called inactive; ? = inconclusive; . = no result given; & = joins results of further samples; [ ] = another dose, or the depositor's remark. Unless noted, the call rests on the fitted dose curve; in most records, active means well fitted rising curve with a large enough effect; inconclusive means small, poorly fitted or top-dose-only effect; inactive means no such curve, though single readings can be large or run the other way. Potency means the concentration at half of the fitted maximal effect.

item	SMILES	SARS PLpro yeast	NS1 inh	2A StopGo	Cruzain inh noDet
1	CCOC(=O)c1c(-c2ccc(OC)cc2)csc1NC(=O)CCN1CCOCC1	0%	-39%	-26%	.
2	Cc1ccc(N=C2NC(=O)/C(=C/c3cccs3)S2)cc1C	-8%	1%	14%	?
3	CC(C)c1cc(C(=O)N2CCCC(Nc3ccc(F)c(F)c3)C2)nc(N)n1 (stereo not given)	1%	7%	-22%	.
4	CCOC(=O)CN(C(=O)CNC(=O)c1ccco1)C(C(=O)NC1CCCCC1)c1cccnc1 (stereo not given)	1%	8%	-5%	.
5	S=c1nc[nH]c2c1cnn2-c1ccccc1	1%	-2%	18%	.
6	CC(=O)Nc1nonc1-c1nnc(SCC(=O)Nc2cc(Cl)ccc2C)n1C	.	.	-2%	10%
7	CCCC12CN3CC(CCC)(CN(C1)C3c1ccc(OC(C)C)cc1)C2=O (stereo not given)	.	.	-19%	-10%
8	COc1ccc(NC(=O)CSc2nc(-c3cc(OC)c(OC)c(OC)c3)[nH]c2-c2ccc(F)cc2)cc1	.	.	-2%	?
9	CCCCC(C(=O)NC(=O)NCc1ccccc1)N1C(=O)c2ccccc2C1=O (stereo not given)	2%	?	-7%	2%
10	COc1cc(NS(=O)(=O)c2cc3[nH]c(=O)c(=O)[nH]c3cc2C)cc(OC)c1OC	0%	1%	?	.
11	COc1ccccc1NC1=NCCS1	15%	-4%	7%	-3%
12	CSc1ccc(CCNC(=O)c2ccc3c(Cl)c4c(nc3c2)CCCC4)cc1	.	.	?	-1%
13	Cc1nc(C(=O)N2CCC(n3nccc3NC(=O)Nc3ccccc3Cl)CC2)cs1	15%	3%	-10%	.
14	O=C(CC(c1ccc(F)cc1)c1ccco1)N1CCOCC1 (stereo not given)	1%	1%	-9%	1%
15	COc1ccc(-n2cnnc2SCC(=O)NCc2cccs2)cc1	4%	?	3%	-3%

item	RE007 growth inh	Cruzain inh Det	Lassa entry inh	MARV entry inh
1	-5%	.	?	0%[46.1 µM]
2	-19%	-6.5%	?	?
3	18%	.	3%	?
4	-6%	.	-9%[46.1 µM]	9%[46.1 µM]
5	9%	.	.	.
6	.	0.0%	-2%[46.1 µM]	2%[46.1 µM]
7	.	-1.4%	4%[46.1 µM]	1%[46.1 µM]
8	.	-6.2%	-24%[46.1 µM]	?
9	19%	1.7%	-21%	9%
10	-4%	.	.	.
11	11%	-1.7%	6%	2%
12	.	-2.9%	?	2%[46.1 µM]
13	11%	.	.	.
14	-12%	0.3%	18%	16%
15	2%	6.1%	-6%	-1%

Continued; it opens with the three that closed the last part.
item	SMILES	SARS PLpro yeast	NS1 inh	2A StopGo	Cruzain inh noDet
13	Cc1nc(C(=O)N2CCC(n3nccc3NC(=O)Nc3ccccc3Cl)CC2)cs1	15%	3%	-10%	.
14	O=C(CC(c1ccc(F)cc1)c1ccco1)N1CCOCC1 (stereo not given)	1%	1%	-9%	1%
15	COc1ccc(-n2cnnc2SCC(=O)NCc2cccs2)cc1	4%	?	3%	-3%
16	Cc1ccc(S(=O)(=O)N2CCCC(NC(=O)N3CCN(c4ccccc4)CC3)C2)cc1 (stereo not given)	-10%	-4%	-25%	14%
17	Cc1ccc(C(OC(=O)c2ccco2)C(=O)NCc2cccs2)cc1 (stereo not given)	1%	-8%	16%	-9%
18	CCOc1ccc(N(CC(=O)NCc2ccccc2Cl)S(=O)(=O)c2c(C)noc2C)cc1	2%	-6%	6%	.
19	Cc1ccc(-c2cc(C(=O)OCC(=O)N(C)c3c(N)n(Cc4ccccc4)c(=O)[nH]c3=O)c3ccccc3n2)o1	-2%	.	3%	.
20	C=CCSc1nnc2c(n1)OC=Nc1ccc(Br)cc1-2	-5%	-27%	13%	25µM*
21	O=C(O)c1cccc(NC(=O)c2cccc(S(=O)(=O)Nc3cccc(F)c3)c2)c1	.	.	-9%	-25%
22	Cc1ccc(N2CCN(C(=O)c3cccn4c(=O)c5ccc(Cl)cc5nc34)CC2C)cc1 (stereo not given)	.	.	-10%	9%
23	Cc1nn(CC(=O)O)c(C)c1[N+](=O)[O-]	4%	6%	1%	.
24	CCOC(=O)c1cccc(NC(=O)CSc2nc3ccccc3c(=O)n2CCOC)c1	-1%	-8%	?	?
25	O=C(Nc1ccc(O)cc1)c1cc(S(=O)(=O)N2CCCC2)ccc1Cl	-3%	3%	?	?
26	S=C(NNc1ccnc2cc(Cl)ccc12)Nc1ccc(Cl)cc1Cl	-1%	-11%	?	.
27	COc1ccc(C2C(C(=O)N3CCCCC3)CC(=O)N2c2ccc(OC)cc2)cc1 (stereo not given)	3%	-3%	8%	-4%
28	Cc1ccc(OCc2ccc(C(=O)Nc3nc4ccccc4n3Cc3ccccc3)o2)c([N+](=O)[O-])c1	10%	8%	-8%	?
29	CC(=O)C1CCC2C3CCC4CC(=O)CCC4(C)C3C(C)(O)CC12C (stereo not given)	.	.	-10%	.
30	COc1ccc(OC)c(CNC(=O)c2ccc(C)c(NC(=O)C3=C(C)OCCS3)c2)c1	0%	1%	9%	.

item	RE007 growth inh	Cruzain inh Det	Lassa entry inh	MARV entry inh
13	11%	.	.	.
14	-12%	0.3%	18%	16%
15	2%	6.1%	-6%	-1%
16	4%	-1.7%	-17%	?
17	32%	-21%	1%	?
18	27%	.	.	.
19	-16%	.	-1%	?
20	-9%	-5.4%	3%	-13%&-13%
21	.	-7.3%	11%[46.1 µM]	.
22	.	3.8%	?	.
23	1%	.	14%	?
24	-5%	-0.8%	-26%	?
25	0%	-2.2%	-2%	?
26	-27%	.	.	.
27	14%	8.1%	2%	4%
28	8%	3.2%	-10%	?
29	-4%	.	?	-5%[46.1 µM]
30	-3%	.	.	.

The results go on.
item	SMILES	SARS PLpro yeast	NS1 inh	2A StopGo	Cruzain inh noDet
31	CC(C)(C)n1nnnc1CN1CCSCC1	4%	4%	-19%	17%
32	CCSc1nnc(NC(=O)CSc2nnc(CNC(=O)c3ccc(OC)cc3)o2)s1	-10%	24%	-11%	?
33	Cc1cccc(OCCCC(=O)Nc2sc3c(c2C(N)=O)CCC(C)C3)c1 (stereo not given)	.	.	-14%	14%
34	O=C(NN1C(=O)C2C3C=CC(C3)C2C1=O)c1cccc(Cl)c1 (stereo not given)	14%	8%	-20%	-5%
35	CCN1CCN(c2ccc(S(=O)(=O)N3CCCCC3)cc2NC(=O)c2ccc(OC(F)F)cc2)CC1	4%	.	-5%	.
36	Cc1csc(NC(=O)c2ccc(Cl)cc2[N+](=O)[O-])n1	-4%	.	-22%	.
37	O=C1CCC/C(=N/NC(=O)c2sc3ccccc3c2Cl)C1	-2%	6%	39%[activator]	.
38	COc1ccc(CCC(=O)N2CCN(C(=O)c3ccccc3)CC2)cc1	2%	0%	8%	.
39	Cc1cc(C(=O)Nc2cccnc2Cl)on1	4%	-3%	40%[activator]	-6%
40	Cn1c(SCc2nc3ccccc3c(=O)[nH]2)nc2ccccc21	-2%	-5%	12%	.
41	COC(=O)c1ccc(NC(=O)CSc2nnc(C)n2CC2CCCO2)cc1 (stereo not given)	13%	-11%	-3%	.
42	CN(C)S(=O)(=O)CC12CCC(CC1=O)C2(C)C (stereo not given)	-1%	1%	-10%	-2%
43	CCOc1ccc(C(=O)OC2CCCN(C)C2)cc1 (stereo not given)	1%	-4%	6%	.
44	C/C(=N/O)c1cc(C(C)(C)C)c(O)c(C(C)(C)C)c1	-9%	7%	-13%	4%
45	COc1ccc2[nH]c3c(c2c1)CCN1C(=O)C(CC(=O)NCCCn2ccnc2)C[C@H](C(=O)N2CCCCC2)[C@@]31CCc1ccccc1 (stereo not given in full)	-4%	.	82%[activator]	.

item	RE007 growth inh	Cruzain inh Det	Lassa entry inh	MARV entry inh
31	0%	3.0%	19%	?
32	1%	1.4%	8%	?
33	.	-12%	-4%[46.1 µM]	.
34	-6%	-0.3%	-8%	1%
35	-3%	.	?	?
36	-15%	.	-19%	?
37	-14%	.	.	.
38	9%	.	.	.
39	-18%	-2.8%	2%	14%
40	-1%	.	?	-4%[14.2 µM]
41	69%	.	?	5%[46.1 µM]
42	26%	-0.6%	17%	11%[46.1 µM]
43	-8%	.	.	.
44	14%	-19%	18%	-8%
45	3%	.	.	0%

(continued)
item	SMILES	SARS PLpro yeast	NS1 inh	2A StopGo	Cruzain inh noDet
46	CCC1CCc2c(sc3ncnc(N4CCOCC4)c23)C1 (stereo not given)	-4%	-62%	?	9%
47	Cn1c(=O)c2c(n3cnnc13)-c1ccccc1CC21CCCC1	27%	-6%	.	2%
48	CCOc1ccc(OCC)c(NC(=O)c2[nH]c(C)c(C(C)=O)c2C)c1	-4%	-5%	2%	-21%
49	C=C(C)C1CC=C(C)/C(=N\NC(=S)Nc2ccc(C)cc2)C1 (stereo not given)	?	8%	27%	-19%
50	C[C@@H]1C[C@H](O)c2cc(Cl)ccc2N1	0%	4%	-18%	2%

item	RE007 growth inh	Cruzain inh Det	Lassa entry inh	MARV entry inh
46	12%	1.8%	-7%	-58%&-58%
47	-4%	1.0%	-15%	?
48	3%	0.9%	19%	2%
49	.	-10%	13µM*	?
50	6%	-1.7%	-6%	-27%

From PubChem BioAssay
